# Compound activity (PubChem BioAssay)
# Resorufin autofl: qHTS Assay for Spectroscopic Profiling in Resorufin Spectral Region; Compound fluorescence, resorufin region 547/598 nm, buffer; active compounds read high; max dye-equivalent concentration, M; 0.04% of 59,000 active; AID 588, 2007; active = above 10 nM dye equivalent; inconclusive = 1 to 10 nM; inactive = 1 nM or less; a few of its hits are not listed in these tables; note: highest value over a series up to 38 µM
#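 Dye-equivalent concentration values derive from comparing each well's 547/598 nm fluorescence against resorufin standards included on every plate. Incubation was 15 min at room temperature in 100 mM Tris, pH 8.0.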
# A647 autofl: qHTS Assay for Spectroscopic Profiling in A647 Spectral Region | Compound fluorescence, A647 channel (570/671 nm), Tris buffer | max dye-equivalent concentration, M | 59,000 tested, under 10 active; active means above 1 µM dye equivalent; inconclusive means 0.1 to 1 µM; inactive means 0.1 µM or less;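 note: values scaled relative to a standard on each plate; highest value over a series up to 38 µM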
#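 Each compound's intrinsic fluorescence at 570 nm excitation and 671 nm emission is measured across its concentration series in 100 mM Tris, pH 8.0, after 15 min at room temperature, and reported relative to an A647 curve.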
# AID923: qHTS Assay for Allosteric/Competitive Inhibitors of Caspase-1: Spectroscopic Profiling in AFC Spectral Region. compound fluorescence, AFC spectral region (405/520 nm); almost no hit is shown here. Potency, µM (doses to about 57.5 µM), without a hit: top-dose fluorescence increase, usual class: activators. 1.1% of 75,000 active; active = well fitted activation curve with a large enough effect; inconclusive = small, poorly fitted or top-dose-only effect;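 note: potency is the fitted concentration of half-maximal effect; 0% is about no effect; scaled to a free AFC standard on each plate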
#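 Titrations up to 57 uM read every 20 sec for 3 min (405/520 nm) with 50 nM caspase 1 and 5 uM Ac-WEHD-AFC, pH 7.5 HEPES buffer. Fluorescence-vs-time intercept gave baseline, scaled against on-plate AFC standard.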
# TSHR ag: qHTS Assay for Agonists of the Thyroid Stimulating Hormone Receptor | 0.48% of 73,000 active | Thyrotropin receptor (Homo sapiens), P16473 | Potency, µM (top dose mostly 57.1 µM), without a hit: at the highest dose activation, usual class: activators | HEK293-CNG-TSHR cells (CNG channel as cAMP sensor), membrane potential dye, cAMP; active = well fitted activation curve of enough size with the parental cells flat; inconclusive = any curve in the parental cells; inactive = parental cells flat and receptor cells flat or falling; note: potency is the fitted concentration of half-maximal effect; % of control where 0% means no effect; weak receptor curves with flat parental cells got no call and are not listed
# Target sequence (P16473 whole entry, looked up): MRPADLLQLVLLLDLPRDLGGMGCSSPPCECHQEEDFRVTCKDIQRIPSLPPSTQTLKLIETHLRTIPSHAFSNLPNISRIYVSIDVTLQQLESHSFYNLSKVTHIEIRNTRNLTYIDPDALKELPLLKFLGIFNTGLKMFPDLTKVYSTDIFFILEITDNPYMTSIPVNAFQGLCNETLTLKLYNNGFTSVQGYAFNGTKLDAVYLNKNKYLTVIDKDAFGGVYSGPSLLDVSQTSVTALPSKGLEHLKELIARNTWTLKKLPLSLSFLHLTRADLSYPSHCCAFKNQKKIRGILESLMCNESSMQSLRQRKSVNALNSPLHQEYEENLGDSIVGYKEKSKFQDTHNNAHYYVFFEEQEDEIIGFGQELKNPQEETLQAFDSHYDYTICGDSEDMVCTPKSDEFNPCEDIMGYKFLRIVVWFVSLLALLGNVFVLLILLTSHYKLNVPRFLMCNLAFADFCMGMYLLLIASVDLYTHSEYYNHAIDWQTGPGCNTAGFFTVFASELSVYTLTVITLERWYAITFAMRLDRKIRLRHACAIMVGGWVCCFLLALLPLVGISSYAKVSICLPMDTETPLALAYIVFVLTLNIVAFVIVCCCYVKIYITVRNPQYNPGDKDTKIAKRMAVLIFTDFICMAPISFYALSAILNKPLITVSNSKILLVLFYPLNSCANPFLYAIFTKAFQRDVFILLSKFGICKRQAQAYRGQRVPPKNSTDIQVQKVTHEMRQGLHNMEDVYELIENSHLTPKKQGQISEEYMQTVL
#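 cAMP rise detected as CNG-channel membrane depolarization by fluorescent dye (emission 590 nm), 30 min after compound, following 60 min dye loading containing 100 uM RO 20-1724 at room temperature. Cells: TSHR/CNG HEK 293, with parental CNG HEK 293 as control.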
# A488 autofl: qHTS Assay for Spectroscopic Profiling in A488 Spectral Region; compound autofluorescence, A488 spectral region, dye equivalency; active compounds read high; 0.1% of 59,000 active; max dye equivalency, M; AID 591, 2007; active = above 10 nM dye equivalent; inconclusive = 1 to 10 nM; inactive = 1 nM or less; about half of its hits are not listed in these tables;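 note: highest value over a series up to 38 µM; compound alone in buffer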
#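 Read-out: relative fluorescence at 480/540 nm, expressed as Alexa 488 dye-equivalent concentration from a six-point A488 standard included per plate. Conditions: 100 mM Tris, pH 8.0; 15 min incubation, room temperature.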
# * = called active by the depositor; i = inactive; ? = inconclusive; · = no result given; [ ] = dose if it differs, or a comment. Only part of the results is shown; count on the stated rates, not on these rows.
SMILES	Resorufin autofl	A647 autofl	AID923	TSHR ag	A488 autofl
C=CCn1c(SCC(=O)Nc2ccc3c(c2)OCO3)nnc1-c1ccccc1OC	i	1.2e-08	-0.8%	?	i
Cc1ccccc1N1C(=O)C(Cl)=C(N2CCCCCC2)C1=O	·	·	3.9%	?	·
O=C(CN1C(=O)CC(c2ccco2)Sc2ccccc21)NCC1CCCO1 (stereo not drawn)	·	·	0.9%	2%	·
CCOC(=O)NC(CC(=O)O)c1ccc(OC)cc1 (stereo not drawn)	i	1.2e-09	0.7%	-1%	i
O=S1(=O)CCN2C(c3ccc4c(c3)CCCC4)=CSC2=N1	i	8.6e-09	-0.9%	7%	i
Cc1[nH]nc2c1C(c1ccc(Cl)cc1)C(C#N)=C(N)O2 (stereo not drawn)	i	1.7e-08	-1.5%	-3%	i
COCCNS(=O)(=O)c1ccc(-c2ccc(S(=O)(=O)NCCOC)cc2)cc1	i	1e-09	-1.4%	6%	i
CCOC(=O)c1ccc2c(c1)N(CC(=O)N1CCCC1)C(=O)C(C)(C)O2	i	1.6e-08	-1.4%	1%	i
COC(=O)c1cc(Cl)c(N)cc1OC	i	1e-09	-2.0%	6%	i
N[C@H](C(=O)O)C1[C@H](C(=O)O)[C@H]1C(=O)O (stereo partly drawn)	·	·	1.1%	15%	·
COCCSc1nc2c(c(=O)[nH]c(=O)n2C)n1Cc1cccc(C)c1	·	·	1.2%	-1%[11.4 µM]	·
COCCCNS(=O)(=O)c1ccc(OC)c(Cl)c1Cl	i	1e-09	1.4%	-1%	i
CCOC(=O)C1=C(C(C)=O)C(c2cccnc2)C(C#N)=C(N)O1 (stereo not drawn)	i	3e-08	·	·	i
O=S1(=O)N=C(N2CCOCC2)c2ccccc21	i	1.9e-08	-1.3%	·	i
C=CCNC(=O)NC(=S)c1ccccc1	i	2.2e-08	-1.5%	0%	i
COc1cccc(NC(=O)c2oc3ccccc3c2NC(=O)c2ccc3c(c2)OCO3)c1	i	2.8e-08	1.4%	·	i
Cn1c(CN2CCCCC2)c(C#N)c2ccccc21	i	1e-09	2.8%	·	i
CS(=O)(=O)n1nc(C(=O)N2CCOCC2)nc1N	i	1e-09	1.5%	2%	i
NC(=O)c1ccsc1NC(=O)C1CCCN1S(=O)(=O)c1ccc(Cl)cc1 (stereo not drawn)	i	1e-09	0.7%	-7%	i
CCOC(=O)N1CCN(C(=O)CCN2C(=O)COc3ccc(C)cc32)CC1	i	1e-09	4.3%	0%	i
COc1ccc(C(=O)N2CCC3(CC2)CCN(c2ncccn2)CC3)cc1	i	1.1e-09	1.3%	9%	i
CCCOc1cccc(C(=O)N(Cc2ccco2)C2CCS(=O)(=O)C2)c1 (stereo not drawn)	i	5.4e-09	3.7%	3%	i
CSCC[C@@H]1NC(=O)C/C=C\[C@@H](C)COC(=O)[C@H](C)COC1=O	·	·	-1.0%[11.5 µM]	-6%[11.4 µM]	·
C=COCCNC(=O)Nc1ccc(Cl)c(Cl)c1	i	2.6e-08	0.7%	-4%	i
COC(=O)C1=C(C)Nc2ncnn2C1c1ccccn1 (stereo not drawn)	i	1e-09	-2.9%	0%	i
O=C(Nc1ccccc1)NC1(C(=O)N2CCN(c3ncccn3)CC2)CCCCC1	i	1.1e-08	-1.4%	1%	i
COc1ccc2cc(CN(Cc3cccnc3)S(=O)(=O)c3ccccc3)c(=O)[nH]c2c1	i	2.5e-09	-2.6%	7%	i
Cc1cccc(NS(=O)(=O)c2cc(C(=O)O)ccc2Cl)c1	·	·	-0.6%	6%	·
CCOC(=O)c1c(NC(=O)CSc2nnc(C)s2)sc2c1CCN(C)C2	i	1e-09	20%	-15%	i
Cc1ccc(CN2C(=O)CCC2C(=O)NCc2ccco2)cc1 (stereo not drawn)	i	1e-09	-0.5%	-4%	i
O=C(CN(Cc1ccccc1)C(=O)CCC(=O)Nc1ccccn1)NCc1ccco1	i	1e-09	1.2%	0%	i
CSCCC(NC(=O)CCN1C(=O)c2ccccc2C1=O)C(=O)O (stereo not drawn)	i	1e-09	0.7%	0%	i
Cc1cc(C(=O)CSc2nnc(-c3ccccc3)n2-c2ccccc2)c(C)n1-c1ncn[nH]1	i	1.9e-08	-0.6%	13%	i
CCCn1c(C)cc(=O)c2cc(NC(=O)c3cnccn3)ccc21	i	8.9e-09	0.6%	?	i
Cc1ccc(S(=O)(=O)N2CCN(C(=O)CCC(=O)N3CCc4ccccc43)CC2)cc1	i	4.5e-08	-0.2%	1%	i
CCOC(=O)c1c(NC(=O)CSc2nnc(Cc3csc(N)n3)n2C)sc(C)c1C	i	1e-09	0.2%	?	i
Cc1cccc(N2CCN(C(=O)C3CCCN(S(=O)(=O)c4c(C)noc4C)C3)CC2)c1C (stereo not drawn)	·	·	-0.6%	-1%	·
O=C(COC(=O)c1cc2ccccc2o1)c1ccccc1	·	·	-0.3%	3%[11.4 µM]	·
S[C@@H]1CCCN(Cc2ccccc2)C1	i	1e-09	2.0%[11.5 µM]	0%[11.4 µM]	i
O=C(Cn1ccc2ccccc2c1=O)NCCC(=O)N1CCN(c2cccc(C(F)(F)F)c2)CC1	i	2.5e-08	-1.6%	24%	i
COc1ccccc1NC(=O)CSc1nnc(Cn2c(=O)sc3ccccc32)n1C	·	·	-1.0%	7%	·
Cn1nnnc1Sc1ncnc2scc(-c3ccccc3)c12	i	1e-09	-0.2%	?	i
COc1ccc(NC(=O)NCc2cccnc2)cc1OC	i	1e-09	-0.7%	4%	i
C=C1C2(C(=O)NCc3ccco3)CCC(C2)C1(C)C (stereo not drawn)	i	1.9e-09	-0.4%	16%	i
CCCn1c(NC(=O)C2CCN(S(=O)(=O)c3cccs3)CC2)nc2ccccc21	i	4.4e-08	1.6%	?	i
CCNc1nc(NC(C)C)nc(OCCNS(=O)(=O)c2cc(C)ccc2C)n1	i	1.1e-09	0.0%	?	i
O=C(CSc1nnc2c(Cl)cc(C(F)(F)F)cn12)Nc1ccc2c(c1)OCO2	i	3.8e-08	-1.3%	2%	i
CCCCn1c(SCC(=O)OCC)nc2c1c(=O)[nH]c(=O)n2C	·	·	-2.1%	-3%	·
Cc1cc(C)nc(-n2nc(C)cc2NC(=O)c2cc3ccccc3oc2=O)n1	i	1.1e-09	1.0%	-3%	i
CN1CCC[C@H](C(=O)OCC(=O)[C@]2(O)CC[C@@H]3[C@H]4CCC5=CC(=O)CC[C@@]5(C)[C@H]4[C@@H](O)C[C@]32C)C1	i	1.5e-08	-1.2%[11.5 µM]	-5%[11.4 µM]	i
COc1cccc(C(=O)NC2(C(F)(F)F)N=C3SCCN3C2=O)c1 (stereo not drawn)	i	6.1e-09	-1.7%	1%	i
Oc1cccc(Nc2ncnc3ccccc23)c1	i	1e-09	-0.1%	2%	i
COc1ccccc1-c1ccc2ncnc(NCc3cccnc3)c2c1	i	7.1e-09	-4.7%	?	i
O=C(NC1CC2CCCC(C1)N2C(=O)N1CCCCC1)C1CCCCC1 (stereo not drawn)	i	3.1e-08	-0.8%	4%	i
CN(Cc1ccco1)c1nc(-c2ccccc2C(F)(F)F)nc2ccccc12	i	1e-09	0.5%	?	i
COC(=O)[C@@]1(Cc2ccc(OC)cc2)[C@H]2c3cc(C(=O)N(C)C)n(CCc4ccc(O)c(OC)c4)c3C[C@H]2CN1C(=O)c1ccccc1	·	·	0.1%	11%	·
COc1ccc2c(c1)nc1n2CN(CC2CCCO2)CN1Cc1ccccc1 (stereo not drawn)	i	2.7e-09	0.6%	12%	i
CNC(=O)c1ccc(OCc2ccccc2)c(OC)c1	i	1.5e-08	0.3%	-8%	i
CN1CC2=Cc3ccccc3OC23Oc2ccccc2C=C3C1	i	1e-09	-0.1%	?	i
CN(C)c1nc(-c2ccoc2)nc2ccccc12	i	2.2e-08	0.1%	6%	i

# Of the compounds above, these contain a cyano group:
SMILES	Resorufin autofl	A647 autofl	AID923	TSHR ag	A488 autofl
Cc1[nH]nc2c1C(c1ccc(Cl)cc1)C(C#N)=C(N)O2 (stereo not drawn)	i	1.7e-08	-1.5%	-3%	i
CCOC(=O)C1=C(C(C)=O)C(c2cccnc2)C(C#N)=C(N)O1 (stereo not drawn)	i	3e-08	·	·	i
Cn1c(CN2CCCCC2)c(C#N)c2ccccc21	i	1e-09	2.8%	·	i

# (continued)
SMILES	Resorufin autofl	A647 autofl	AID923	TSHR ag	A488 autofl
Cc1cc(C)nc(SCc2nnc(SCC(=O)OC3CCCCC3)o2)n1	i	1e-09	-0.2%	6%	i
CCn1c(SCC(=O)OCc2ccccc2)nnc1-c1ccco1	i	3.6e-08	-0.9%	?	i
Cn1c(=O)c2c(nc(CN3CCc4ccccc4C3)n2CCc2ccccc2)n(C)c1=O	i	3.4e-08	-1.2%	?	i
O=C(Nc1ccc(S(=O)(=O)NCc2cccnc2)cc1)c1ccco1	i	4.5e-08	0.6%	11%	i
COc1ncc2ncc(=O)n(C[C@H]3CCCO3)c2n1	i	1e-09	3.4%	?	i
CC1Cc2ccccc2N1C(=O)CSc1nnc2sc3ccccc3n12 (stereo not drawn)	i	1e-09	-0.5%	?	i
COc1ccc(C(C(=O)NC2CCCCC2)N(CC2CCCO2)C(=O)CNC(=O)c2ccco2)cc1 (stereo not drawn)	i	3.6e-08	-2.6%	9%	i
CC1(C(=O)NC2CCCCC2)CCC(=O)N1Cc1cccnc1 (stereo not drawn)	·	·	2.6%	1%	·
COCc1nnc(NC(=O)CCC2CCCCC2)s1	i	3.9e-08	-0.2%	4%	i
O=C(Oc1nsnc1N1CCOCC1)N1CCCCC1	i	2e-08	1.0%	3%	i
Cc1ccc(S(=O)(=O)NCCc2ccncc2)cc1	·	·	-0.7%	2%	·
O=C(O)c1cc(-c2ccncc2)nc2ccccc12	i	1e-09	-2.4%[11.5 µM]	-2%[11.4 µM]	i
Cc1c(C#N)c2ccccc2n1CC(=O)NCc1cccnc1	i	1e-09	0.3%	4%	i
O=C1C=C(NCc2ccc(Cl)cc2)CC(c2ccco2)C1 (stereo not drawn)	·	·	-0.2%	13%	·
COCCSc1nnc(NC(=O)C2CCCO2)s1 (stereo not drawn)	i	9.5e-09	0.8%	-1%	i
Nc1ccc(C(=O)C[C@H](N)C(=O)O)cc1O	i	8.1e-09	3.8%[11.5 µM]	-5%[11.4 µM]	i
COc1ccc(S(=O)(=O)NC(CC(=O)NCc2ccccc2OC)c2ccco2)cc1 (stereo not drawn)	i	3.2e-08	-0.7%	3%	i
Cc1ccccc1S(=O)(=O)O[C@@H]1NS(=O)(=O)c2ccccc21	i	1e-09	1.0%[11.5 µM]	1%[11.4 µM]	i
O=C(CCC1CCCCC1)Nc1c2c(nn1-c1ccc(F)cc1)CS(=O)(=O)C2	i	2.3e-09	-0.5%	?	i
CCN(CC)S(=O)(=O)N1CCC(C(=O)NCCN2CCOCC2)CC1	i	5.1e-09	-1.1%	1%	i
COC(=O)Nc1ccc(S(=O)(=O)N2CCCCCC2)cc1	i	9e-09	-1.3%	-1%	i
CC(C)[C@@H]1N[C@]2(C(=O)Nc3ccccc32)[C@@H]2C(=O)N(c3cccc(C(F)(F)F)c3)C(=O)[C@@H]21	i	1e-09	-2.8%	5%	i
